# KCNQ2 pot: enhances the rat KCNQ2 potassium channel; actives 0.54% (n = 310,000); AID 2239; CHO-K1 KCNQ2, FluxOR thallium flux fluorescence; active compounds read high; B-score at 10 µM;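 active = fluorescence ratio B-score at least 3 SD of library B-scores, with initial fluorescence B-score within 3 SD, cut at about 5.3 in these data; same plate scores as AID 2156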;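 also: B-score of peak minus minimum over baseline fluorescence ratio after K+ and Tl+ stimulus; positive B-score means potentiation of KCNQ2 with more thallium influx and brighter signal; only the inactives scoring about 0 or higher are listed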
# Target sequence (O88943 whole entry, looked up): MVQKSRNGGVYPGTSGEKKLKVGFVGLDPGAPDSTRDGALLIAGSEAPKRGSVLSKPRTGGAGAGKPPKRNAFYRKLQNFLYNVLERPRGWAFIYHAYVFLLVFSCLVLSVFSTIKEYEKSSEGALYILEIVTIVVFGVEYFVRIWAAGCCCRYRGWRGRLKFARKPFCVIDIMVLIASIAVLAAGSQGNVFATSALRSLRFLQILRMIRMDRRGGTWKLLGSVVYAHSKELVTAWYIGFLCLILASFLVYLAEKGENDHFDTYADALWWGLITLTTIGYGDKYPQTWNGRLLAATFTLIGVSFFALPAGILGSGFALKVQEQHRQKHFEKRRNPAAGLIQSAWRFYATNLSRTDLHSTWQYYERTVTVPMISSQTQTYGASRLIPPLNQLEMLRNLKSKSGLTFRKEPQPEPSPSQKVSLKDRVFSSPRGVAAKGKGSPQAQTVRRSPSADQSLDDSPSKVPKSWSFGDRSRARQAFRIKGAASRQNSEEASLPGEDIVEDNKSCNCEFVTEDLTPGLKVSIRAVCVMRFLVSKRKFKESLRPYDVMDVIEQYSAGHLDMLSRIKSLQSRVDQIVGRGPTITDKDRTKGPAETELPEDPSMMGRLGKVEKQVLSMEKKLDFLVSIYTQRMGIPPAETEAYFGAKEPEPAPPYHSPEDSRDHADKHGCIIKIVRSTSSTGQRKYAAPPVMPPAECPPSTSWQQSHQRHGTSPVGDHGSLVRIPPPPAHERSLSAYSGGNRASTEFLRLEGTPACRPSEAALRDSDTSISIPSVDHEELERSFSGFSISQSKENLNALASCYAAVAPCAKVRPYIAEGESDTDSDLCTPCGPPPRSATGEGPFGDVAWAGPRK
# KCNQ2 pot baseline: further read-out of KCNQ2 pot, marked with its call; B-score; compound at 10 µM; measured here: initial fluorescence intensity artifact check;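 brightness before thallium and not channel activity; 0 = typical well and far values either way flag optical interference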
# Starred values were filed as active, the others as inactive.
# Second line of a record – KCNQ2 pot | KCNQ2 pot baseline
Cc1ccc(NC(=O)COC(=O)c2ccc([N+](=O)[O-])o2)cc1S(=O)(=O)N1CCCCC1
    0.88 | -1.1
O=C(Cn1nnc2ccccc2c1=O)N[C@@H](Cc1c[nH]c2ccccc12)C(=O)O
    0.29 | -1.6
O=C(O)CC1SC(=O)N(Cc2ccccc2)C1=O (stereo unspecified)
    0.22 | -0.53
COc1ccc(C(=O)N2CCN(C(=O)c3ccc(-c4ccccc4)cc3)CC2)cc1OC
    0.54 | -0.99
CC(=O)Oc1cccc(NC(=O)c2cccc(C(=O)Nc3cccc(OC(C)=O)c3)c2)c1
    1.3 | 0.79
CCCCC(=O)Nc1ccc(C(=O)N2CCN(C)CC2)cc1
    1.2 | -0.14
COC(=O)c1ccccc1NC(=O)CSCC(=O)Nc1ccc(F)cc1
    2 | -1.2
COc1ccc(/C=N/NC(=O)CNC(=O)c2ccncc2)cc1
    0.91 | 1.6
Cc1c(S(=O)(=O)N2CCCC(C)C2)c(=O)n(C)c(=O)n1C (stereo unspecified)
    0.97 | -1.5
COc1ccc(/C(C)=N/NC(=O)CNC(=O)/C=C\c2ccccc2OC)c(OC)c1
    0.05 | 0.92
Oc1c(Cl)cc(Cl)c2c1NCCC2
    6.3* | -0.01*
Cc1ccccc1C(=O)NCC(=O)OC1CCCCC1=O (stereo unspecified)
    0.24 | 0.92
COc1ccc(NC(=S)c2ccccc2)cc1
    0.05 | -0.37
CC1(C)Cn2c(nnc2-c2ccccc2)S1
    0.51 | 1.5
CCCCNC(=O)NNc1nc(Cl)cc(C)c1C#N
    2.1 | 0.81
CCn1c(SCC(=O)Nc2nc3ccc(OC)cc3s2)nc2c1c(=O)n(C)c(=O)n2C
    0.29 | -2
COc1ccc(N(CC(=O)NCc2ccccc2)C(=O)Cn2nnc(-c3ccccc3F)n2)cc1OC
    0.05 | -0.13
O=C(NCCc1ccccc1)C1CCN(C(=O)N2CCOc3ccccc32)CC1
    1.2 | 0.82
Cc1nnc(NC(=O)C2CCCCC2)s1
    0.09 | -0.76
Cc1ccc(-c2nn(-c3ccccc3)cc2C=C2C(=O)CC(C)(C)CC2=O)cc1
    1.4 | -0.06
NC12CC3CC(C1)CC(CO)(C3)O2
    0.71 | -0.08
CC(C)(c1ccccc1)c1ccc(OCCN2CCCC2)cc1
    1.1 | -0.01
CNC(=O)c1cc2c(ccc3ccccc32)o1
    0.66 | 2.4
CCC(=O)c1ccc(OCC(=O)N(Cc2nnc(-c3ccccc3Cl)o2)C2CC2)cc1
    0.49 | 0.57
Cc1cccc(C(=O)O/N=C(\N)c2ccccn2)c1
    0.08 | 0.32
CCCc1nn(C)c(C(=O)Nc2ccc(C)c(C)c2)c1Cl
    0.58 | 0.82
CC(C)Nc1ccc(-n2nc3ccccc3[n+]2[O-])cc1
    0.42 | 0.02
Cc1ccc(Cn2cccc(NC(=O)NCc3ccccc3)c2=O)cc1
    0.04 | 0.03
CCOC(=O)CC(NC(=O)c1ccccc1)c1ccc(OC)cc1 (stereo unspecified)
    0.24 | 0.3
CCCC(=O)Nc1cccn(Cc2ccccc2Br)c1=O
    0.39 | -2.4
COc1ccc(NC(=O)CS(=O)(=O)c2cn(CC(=O)N3CCOCC3)c3ccccc23)cc1OC
    0.16 | -1.8
CC(=O)/C(N=Nc1ccc(C(=O)O)cc1)=C(\C)O
    1.7 | 0.67
Cc1cccc(C)c1OCC(=O)Nc1ncn[nH]1
    0.49 | -0.09
COc1ccccc1C(=O)COC(=O)c1cccc(S(=O)(=O)N2CCCC2)c1
    0.91 | 0.28
CCN=C1SC(CC(=O)NCC)C(=O)N1CC (stereo unspecified)
    0.55 | -1
CNCC(C)COc1ccccc1OCc1ccccc1 (stereo unspecified)
    0.73 | -0.36
Cn1c(SCC(=O)N2CCOCC2)nnc1-c1ccco1
    0.13 | -1
O=C(CS(=O)CC(=O)Nc1ccc(Cl)cc1)NCC1OCCc2ccccc21 (stereo unspecified)
    0.49 | -0.48
O=C(c1cccc(S(=O)(=O)Nc2ccccc2Cl)c1)N1CCC1
    0.9 | 0.47
Nc1nc(Nc2cccc(F)c2)nc(N2CCOCC2)c1[N+](=O)[O-]
    0.76 | 2.2
CCc1[nH]c(C(=O)O)c(C)c1C(=O)OC
    0.67 | -2
CCOc1ccc(C2C3=C(CCCC3=O)N(CC(=O)O)C3=C2C(=O)CCC3)cc1
    0.47 | 0.93
CCOC(=O)CC(=O)CSc1nc(C)cc(-c2cccnc2)c1C#N
    1.1 | 0.03
Fc1ccccc1Nc1nc2ccccc2o1
    0.83 | -3.1
CN1CCN(c2ccc(C(=O)c3ccc(Br)cc3)cc2[N+](=O)[O-])CC1
    0.28 | -0.26
CC(=O)Nc1ccc(OCC[n+]2cccc(C(N)=O)c2)cc1
    0.41 | 0.05
COc1ccc(-n2nnnc2-c2nc3ccccc3s2)cc1
    1.9 | -0.43
O=C(NCc1ccc(OC(F)(F)F)cc1)c1ccc2c(c1)S(=O)(=O)c1ccccc1C2=O
    0.28 | 0.13
COc1ccccc1NS(=O)(=O)c1cc(-c2cnc(C3CC3)o2)ccc1C
    1.1 | 3.5
CCC(=O)Nc1cccc(-c2nc3ccc(C)cc3o2)c1
    0.31 | 0.76
CC1CCCN(C(=O)COC(=O)c2cccc(NS(=O)(=O)c3ccccc3)c2)C1 (stereo unspecified)
    0.02 | 0.35
CCc1c(O)nc2ccccn2c1=O
    0.02 | 0.32
COc1cc(/C=C(\NC(C)=O)C(=O)Nc2ccccc2C)ccc1OC(C)=O
    0.18 | 1.1
CCCCC(=O)NC(=S)Nc1ccc(Cl)c(C(=O)O)c1
    0.13 | 0
Cc1cccc(/C=N/n2c(COc3ccccc3)n[nH]c2=S)c1
    6* | -0.81*
CCN(CC)C(=O)n1c(Cc2ccccc2)nc2ccccc21
    0.96 | -0.8
CCOC(=O)c1ccc(NC(=O)CSc2ccc(-c3cccnc3)nn2)cc1
    1.2 | 1.5
N#C/C(=C(/O)c1ccc([N+](=O)[O-])o1)c1nc2ccccc2[nH]1
    0.78 | 0.39
CCOCCCNCC(=O)Nc1ccc(OC(F)(F)F)cc1
    0.02 | -1
COc1ccc2c(c1)c(C(=O)CN1CCC3(CC1)OCCO3)c(C)n2C
    0.82 | 0.95

# Later entries:
# Second line of a record – KCNQ2 pot | KCNQ2 pot baseline
CCCCn1c(N)c(N(CC(C)C)C(=O)c2cc(-c3ccc(F)cc3)nc3ccccc23)c(=O)[nH]c1=O
    0.1 | -2.1
O=C(COc1ccc2c(c1)CCC2)NCc1cccc(Cl)c1
    0.2 | -0.2
COc1ccc(CNC(=O)c2c(N)n(CCCN3CCOCC3)c3nc4ccccc4nc23)cc1
    0.77 | -0.11
Cc1cc(NC(=O)COc2ccc3ccccc3c2)no1
    1.8 | 0.01
CN1C(=O)CCC(CCC(=O)O)(c2ccccc2O)C1=O (stereo unspecified)
    1.4 | 0.04
O=C(Cc1n[nH]c(=O)c2ccccc12)NC(c1ccccc1)c1ccccc1
    0.61 | -0.66
Cc1oc(-c2ccc(Cl)cc2)nc1CN1CCC(C(=O)NCC2CCCO2)CC1 (stereo unspecified)
    0.02 | 0.52
O=C1CC(C(=O)N2CCc3ccccc32)CN1c1ccccc1 (stereo unspecified)
    0.29 | 0.7
O=C(NC1CCN(Cc2ccccc2)CC1)c1cn(-c2ccccc2)nc1-c1cccnc1
    0.71 | 1.7
Cc1cccc(C)c1NC(=O)COC(=O)c1nonc1N
    0.72 | 2.1
COC(=O)c1ccc(C)c(NC(=O)COC(=O)C2CC3CCCC(C2)C3=O)c1 (stereo unspecified)
    0.36 | -0.32
Cc1csc(NC(=O)CSc2nc(C(C)C)nc3ccccc23)n1
    6.2* | -0.85*
O=C(Nc1scc(-c2ccccc2)c1C(=O)O)c1ccc(F)cc1
    4.6 | -0.6
COc1ccc(NC(=O)CS(=O)(=O)c2cccc(Cl)c2)cc1
    1.1 | -0.48
S=c1nc[nH]c2c1[nH]c1ccccc12
    0.38 | 0.18

# In the list so far, two contain a CF3 group.
# Second line of a record – KCNQ2 pot | KCNQ2 pot baseline
O=C(NCc1ccc(OC(F)(F)F)cc1)c1ccc2c(c1)S(=O)(=O)c1ccccc1C2=O
    0.28 | 0.13
CCOCCCNCC(=O)Nc1ccc(OC(F)(F)F)cc1
    0.02 | -1

# Shown as labelled records: part of the list above
mol: Cc1cc(NC(=O)COc2ccc3ccccc3c2)no1
  KCNQ2 pot: 1.8
  KCNQ2 pot baseline: 0.01

mol: CN1C(=O)CCC(CCC(=O)O)(c2ccccc2O)C1=O (stereo unspecified)
  KCNQ2 pot: 1.4
  KCNQ2 pot baseline: 0.04

mol: O=C(Cc1n[nH]c(=O)c2ccccc12)NC(c1ccccc1)c1ccccc1
  KCNQ2 pot: 0.61
  KCNQ2 pot baseline: -0.66

mol: Cc1oc(-c2ccc(Cl)cc2)nc1CN1CCC(C(=O)NCC2CCCO2)CC1 (stereo unspecified)
  KCNQ2 pot: 0.02
  KCNQ2 pot baseline: 0.52

# Next part
Structure	KCNQ2 pot	KCNQ2 pot baseline
CC(=O)Nc1ccc(OC/C=C(\C)Cl)cc1	0.07	0.04
Cn1cnnc1SCC(=O)Nc1c(F)cc(F)cc1Br	1.1	-0.51
Cn1c(NC(=O)/C=C/c2c(F)cccc2Cl)cc(=O)n(C)c1=O	0.97	1.6
O=C(Cn1nc(-c2ccccc2)ccc1=O)Nc1cccc(NC(=O)c2ccccn2)c1	1.4	2.3
CCC(Sc1nc(N)cc(N)n1)C(=O)O (stereo unspecified)	1.6	0.06
CCCS(=O)(=O)N1CCCC(C(=O)NCCN(Cc2ccccc2)C(C)C)C1 (stereo unspecified)	0.13	-0.16
COc1ccc(NC2CCCN(C(=O)c3ccc4[nH]c(C)c(C)c4c3)C2)cc1 (stereo unspecified)	0.68	1.2
CNC(=O)CNC(=O)Nc1ccc(Cl)c(Cl)c1	0.93	-0.43
O=C(NC(=O)N1CCCCCC1)c1ccc(Cl)cc1	0.83	1
COc1ccc(C(=O)OC2CCCCC2CN(C)C)cc1 (stereo unspecified)	0.9	0.14
Cn1c(CCN2CCCCC2)nc2cc(NC(=O)C3CCCCC3)ccc21	0.21	1.4
O=c1[nH]c2c(c(=O)n1Cc1ccccc1)CCC2	0.47	-0.14
Cc1ccc(NC(=O)CS(=O)CC(=O)N(CC(=O)NC2CCCC2)c2ccc3c(c2)OCCO3)cc1 (stereo unspecified)	0.02	0.26
CCOc1ccc(C(=O)NCC(=O)OCC(=O)NC2CCCC2)cc1	0.49	-1.8
CCN(CC)CCc1c(C)[nH]c(C(=O)OCc2ccccc2)c1C	0.67	1.4
COc1cc(OC)c(C(=O)OCC(=O)N2CC(=O)Nc3ccccc32)cc1OC	1.5	-0.8
O=C(Nc1ccccc1)C1=C[C@H](c2coc3ccccc3c2=O)C[C@H](OCc2ccc(CO)cc2)O1	0.37	0
CC(=O)OCC(=O)Nc1ccccc1OC(F)F	1.5	1.4
CCOc1ccccc1NC(=O)NNS(=O)(=O)c1ccc([N+](=O)[O-])cc1	1.1	-0.44
COc1ccccc1N1CCN(c2ncc(C(=O)N3CCN(c4cccc(Cl)c4)CC3)c3ccccc23)CC1	0.4	-1.1
Cc1cccc(NC(=S)N2CCN(C(=O)C3CCCO3)CC2)c1 (stereo unspecified)	0.69	0.2
Clc1ccc(CSc2nnc(Cn3cnc4ccccc43)o2)cc1	0.11	-1
Cc1ccc(NC(=O)CSc2nnc(NC(=O)C3CC3)s2)cc1	1.6	-1.1
O=C1Nc2ccccc2N(O)N1c1ccc(S(=O)(=O)Nc2ccccn2)cc1	0.58	-0.07
CCCOCC1CC(CCc2nc(=S)[nH][nH]2)C(=O)O1 (stereo unspecified)	0.6	-1.1
Cc1cc2cc(CNC(=O)C3CCCC3)ccc2n1C	0.96	1.2
COc1cccc(COC(=O)c2cc(=O)[nH]c3ccc(S(=O)(=O)N4CCOCC4)cc23)c1OC	0.65	-0.66
Cc1onc(-c2ccccc2)c1C(=O)NCC1COc2ccccc2O1 (stereo unspecified)	0.12	0.9
CS(=O)(=O)N(Cc1ccccc1Cl)c1ccc(C(=O)N2CCCC2)cc1	1.1	1.7
Cc1ccc(-c2noc(CCC(=O)Nc3cccc(C#N)c3)n2)cc1	0.53	1.3
Cc1ccc(S(=O)(=O)CC(=O)Nc2ccc3nc(C)sc3c2)cc1	0.06	-0.05
COc1ccc(NC2c3ncccc3C(=O)N2Cc2ccccc2)c(OC)c1 (stereo unspecified)	0.05	0.2
Nc1cccc2c1C(=O)N(C(=O)/C=C/c1ccc(F)cc1)C2=O	0.85	-0.47
O=C(Nc1csc(Cc2c(Cl)cccc2Cl)n1)NN1CCOCC1	6.1*	-0.67*
CCOc1ccccc1C(=O)N(C)Cc1cc2ccccc2[nH]c1=O	1.1	-0.04
COC(=O)CN1C(=O)C(O)=C(C(C)=O)C1c1ccc([N+](=O)[O-])cc1 (stereo unspecified)	1	-1.6
O=C(c1cc2ccccc2oc1=O)N(Cc1cccs1)CC1CCCO1 (stereo unspecified)	0.45	-0.08
CC(C)NC(=O)NC(=O)COC(=O)c1cccc(S(=O)(=O)N2CCCCC2)c1	0.24	1.1
COc1ccc(NC(=O)CSc2nc(N)c(NC(=O)c3ccccc3F)c(=O)[nH]2)cc1	0.68	0.49
COc1ccc(OCCOc2ccc(C)nc2[N+](=O)[O-])cc1	0.23	-0.45
CC(=O)c1c(C)[nH]c(C(=O)CN2C(=O)NC(C)(c3ccc(C)cc3)C2=O)c1C (stereo unspecified)	0.07	-0.72
Cc1c(C=O)c2ccccn2c1C(=O)c1ccc(F)cc1	0.7	-0.03
N#CC(C#N)=C/C(C#N)=C(/N)N1CCN(c2ccc(Cl)cc2)CC1	0.78	-0.39
CC1Sc2ccc(S(=O)(=O)N3CCC(C(=O)N4CCN(C)CC4)CC3)cc2NC1=O (stereo unspecified)	0.84	-1.4
COc1ccccc1NC(NC(=O)c1ccco1)C(=O)c1ccccc1 (stereo unspecified)	1.2	1.1

# Not all compounds are listed, so the mix of outcomes need not match the whole.
